VACV E9 pol inh: vaccinia E9 polymerase processive synthesis inhibition | in vitro processive DNA synthesis, absorbance read-out; stronger effect = lower value; some inactives read as strong as hits | normalized absorbance, % (no concentration beside the values) | actives 0.94% (n = 46,000) | AID 493162;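 active means replicate mean up to 90% and picked by the depositor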;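 further: 100% = median of the test wells of a plate; 100 nL library stock went into each well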
An asterisk follows results filed as active. Not all compounds are listed. The share of hits here may be higher or lower than overall.

SMILES	VACV E9 pol inh
CC(C)(C)C(=O)n1cc2c(n1)-c1cc(Cl)ccc1SC2	99.5
O=C(NCc1ccccn1)c1cc(Sc2ccc(F)cc2)nc2ccccc12	104.3
Cc1ccc(-n2cc(-c3ccccc3)c3c(NN4CCOCC4)ncnc32)cc1Cl	100.5
Nc1nc(C(=O)N2CCOCC2)nn1S(=O)(=O)c1ccc(Cl)cc1	99.3
CC1CCCC(C)N1C(=O)COC(=O)c1cccs1 (centres undefined)	107.0
CCSc1nsc(SCC)c1C(N)=O	100.3
CCOc1ccc(Nc2cnnc(Nc3ccc(OCC)cc3)n2)cc1	96.3
Cc1ccc(NC(=S)N2CCC(N(C)CCN3CCOCC3)CC2)cc1C	95.9
O=S(=O)(Cc1ccc(Cl)cc1)CC(O)COc1ccc(F)cc1 (centres undefined)	109.0
O=C1CC(C(=O)Nc2nncs2)C(c2ccccc2)O1 (centres undefined)	99.6
CC(Oc1ccccc1-c1ccccc1)c1n[nH]c(=S)n1-c1ccccc1 (centres undefined)	86.3
Cc1nc2ccccc2nc1SC(C(=O)O)c1ccccc1 (centres undefined)	95.4
COC(=O)c1cc(CC#N)c(C)o1	87.6
CCN(CC)C(=O)c1csc(Nc2ccc(OC)cc2)n1	100.1
O=C(O)c1ccc(Nc2ncnc3c2cnn3Cc2ccccc2)cc1	100.2
Cc1ccc(S(=O)(=O)N2CCC(N(C)CCC(C)C)CC2)cc1	110.3
CCC(=O)N1CCc2cc(S(=O)(=O)CCC(=O)NCc3cccs3)ccc21	101.1
Cc1ccc(CNC(=O)CCc2c(C)nc3c4cccnc4nn3c2C)cc1	94.6
COCc1nnc(NC(=O)/C=C/c2cc(OC)c(OC)c(OC)c2)s1	99.8
Cc1ccc(C)n1-c1cccnc1	93.4
COc1ccccc1CNC(=O)C1CCCN1c1nn2c(=O)cc(C)nc2s1 (centres undefined)	106.2
CCCCN(C(=O)c1cn(-c2ccc(OC)cc2)c(=O)c2ccccc12)C1CCN(C(C)=O)CC1	97.4
COc1ccc(CNC(=O)c2ccc(N3CCCS3(=O)=O)cc2)cc1	96.2
Cc1ccc(C)c(NC(=O)CC(NCCc2ccccc2)C(=O)O)c1 (centres undefined)	90.0
N#C/C(=C\C=C\c1ccccc1)c1nc2ccccc2c(=O)[nH]1	100.2
Cc1ccc(-n2nc(C)cc2NC(=O)c2ccco2)cc1	103.7
Cc1cc(C)c(C#N)c(SC2CCCCC2=O)n1 (centres undefined)	99.7
COc1ccccc1Nc1nc2ccccc2[nH]1	101.2
Cc1ccc(CN(Cc2ccccc2)C(=S)NCC(=O)N2CCC3(CC2)OCCO3)o1	88.7
COC(OC)c1ccc(C#N)c(SCc2ccc(C)cc2)n1	98.2
C=C(C)Cn1c(C2CC(=O)N(c3cc(OC)ccc3OC)C2)nc2ccccc21 (centres undefined)	100.7
O=C(OCc1ccc(-c2cc(C(F)(F)F)cc(C(F)(F)F)c2)o1)c1cccs1	91.0
CCC(C)c1ccc(OCCCN2CCN(C)CC2)cc1 (centres undefined)	108.6
CC1CCCC(n2c(=S)[nH]c3ccccc3c2=O)C1C (centres undefined)	100.2
CCN1CCN(C(c2cccs2)C(C)NC(=O)Cc2cccs2)CC1 (centres undefined)	97.2
COc1ccc(-c2ccn(-c3cccc(F)n3)n2)cc1	92.6
CCCCc1ccc(NC(=O)CN2C(=O)CSC(C)C2=O)cc1 (centres undefined)	89.0
CC(C)=CCCC1(C)C=Cc2c(O)c3c(c(CC=C(C)C)c2O1)OC12C(=CC4CC1C(C)(C)OC2(C/C=C(/C)C(=O)O)C4=O)C3=O (centres undefined)	99.6
O=C(NC12CC3CC(CC(C3)C1)C2)C1CCC1	105.6
Clc1ccc(-n2ncc3c2ncn2nc(-c4ccccc4)nc32)cc1	105.6
Fc1ccc(/C=N/n2cnnc2)cc1	100.2
Cc1ccccc1COC(=O)CCCC1=NS(=O)(=O)c2ccccc2N1	102.7
CCOC(=O)C(C)n1ncn2cccc2c1=O (centres undefined)	98.2
CN1CCCc2cc(/C=C3\CCC(C4CCCC4)C3=O)ccc21 (centres undefined)	105.6
CC(C(=O)N1CCCCCC1)(c1ccccc1)c1ccccc1	101.0
CCC1CCC(c2nnc(-c3ccc(Br)cc3)o2)CC1 (centres undefined)	100.0
CC(C)(C)n1nc2c(c1NC(=O)COc1ccccc1)CSC2	100.6
CCN(C(=O)CCc1ccccc1)C1CCCCC1	101.3
N#CCC(=O)Nc1cccnc1	101.9
O=C(/C=C/c1cccs1)Nc1ccc(N2CCCC2)c(C(=O)O)c1	93.2
O=C(Nc1nccs1)c1ccc(Cl)s1	103.9
CCOC(=O)N1CCC(NC(=O)Nc2cc(C)oc2C(F)(F)F)CC1	103.6
CCC(=O)Oc1ccc(C(=O)CC)cc1OC	97.8
CCOC(=O)N1CCN(C(=O)CSCC(=O)Nc2nc(-c3cccs3)cs2)CC1	99.8
Cc1c(/C=N/O)sc2ccccc12	96.8
C=CCc1cccc2cc(C(=O)O)c(=O)oc12	87.3
N#Cc1c(F)cccc1C(C#N)(c1ccccc1)N1CCOCC1 (centres undefined)	90.1
Cc1cc2ccccc2n1CCNC(=O)c1cccs1	100.7
Cc1cc2cc(CNC(=S)NCCc3ccccc3)ccc2n1C	81.7
O=C(CSC(=S)N1CCOCC1)N1CCc2ccccc21	97.4

(listing goes on)
SMILES	VACV E9 pol inh
CP(=O)(O)C(c1cccc(Cl)c1)C(F)(F)F (centres undefined)	98.3
Cn1c(=O)c2c(SCc3cccc(C(F)(F)F)c3)nc(-c3ccco3)nc2n(C)c1=O	97.8
CCN1CCN(C(=O)c2cn(-c3ccccc3)nc2-c2cccs2)CC1	92.0
OCCN1CNC(=S)NC1	75.8
COC(=O)c1ccn(COc2ccccc2Cl)n1	99.2
O=C(Cc1ccccc1)N1CCC(c2ccccc2)=N1	99.5
CCOc1ccc2nc(NN)sc2c1	22.5*
CCOC(=O)c1[nH]nc2c1COc1ccccc1-2	96.6
COc1cccc(-c2cc(C(=O)N3CCCCC3C)no2)c1 (centres undefined)	101.0
CC(C)c1ccc(S(=O)(=O)Nc2cc(SCC(=O)O)c(O)c3ccccc23)cc1	96.7
CC(=O)Nc1cc(C(=O)c2ccc(Cl)cc2)nn(-c2ccccc2)c1=O	106.6
CSc1ccc(/C=C2\C(=O)N(C)N=C2C)s1	94.8
CCCN1CCC(N2CCCC(C(=O)N(C)CCc3ccc(OC)c(OC)c3)C2)CC1 (centres undefined)	98.1
c1ccc(-c2cc3ccsc3o2)cc1	99.4
OC(CNCc1ccco1)COc1ccccc1 (centres undefined)	92.8
O=C(O)CCC(=O)Nc1sc2c(c1C(=O)O)CCCC2	99.9
CCC(=O)c1cn(S(=O)(=O)c2ccc(C)cc2)c2ccccc12	100.2
Cc1ccc(Cn2c(SCc3cccc(C(F)(F)F)c3)nc3ccncc32)cc1	89.2
O=S(=O)(c1ccccc1)N(CCO)Cc1ccccc1	100.2
CCN(CC)c1ncnc2sc3c(c12)CCCC3	79.3
COc1ccc(-c2nc3ccccc3n2CCOc2ccccc2)cc1	99.2
CCN1C(=O)/C(=C/c2ccc(-c3ccc(Br)cc3)o2)N(CC)C1=S	100.2
CCOC(=O)C1=C(c2ccccc2)Nc2ncnn2C1c1ccc(OCc2ccccc2)cc1 (centres undefined)	100.0
COC(=O)/C=C1/C(=O)N/C(=N\c2nc(C)cc(C)n2)N1c1cccc(C)c1	100.1
NC(=O)CCNC12CC3CC(CC(C3)C1)C2	102.0
CCOc1cc(C(=O)Nc2cc(Cl)ccc2OC)cc(OCC)c1OCC	100.1
OC(COc1ccc(F)cc1)CN1CCN(c2ccccc2F)CC1 (centres undefined)	100.4
COC(=O)c1cc(S(=O)(=O)N2CCN(c3cccc(C(F)(F)F)c3)CC2)cn1C	102.0
OC(COc1ccc(-c2ccccc2)cc1)CN1CCCCC1 (centres undefined)	94.0
COc1ccc(C2CC(=O)N(CC(=O)N3CCOCC3)c3ccccc3S2)cc1 (centres undefined)	107.0
CC(=O)Nc1nnc(C)s1	98.5
CCc1cccc(CC)c1NC(=O)COc1ccccc1C(=O)N1CCOCC1	99.2
CCc1ccc(NC2=NC(C(=O)Nc3ccccc3)CC(=O)N2)cc1 (centres undefined)	104.0
COC(=O)NC1CCS(=O)(=O)C1 (centres undefined)	97.8
Cc1ccc(C2C3C(=O)N(C)C(=O)C3ON2c2ccccc2)cc1 (centres undefined)	98.4
O=C(O)C1C2C=CC3(CN(CCc4ccccc4)C(=O)C13)O2 (centres undefined)	100.2
CCC(CC)NS(=O)(=O)c1cccc(C(=O)NCCOc2ccccc2)c1	100.4
CCC1CSc2nc3ccsc3c(=O)n21 (centres undefined)	104.0
CC1(C)CNC(=O)c2sc(N3CCCCC3)nc2C1	72.7
O=C(O)Cn1c(=O)oc2cc(S(=O)(=O)N3CCOCC3)ccc21	108.9

The final eight records of the section before lead into the next.
SMILES	VACV E9 pol inh
CCc1ccc(NC2=NC(C(=O)Nc3ccccc3)CC(=O)N2)cc1 (centres undefined)	104.0
COC(=O)NC1CCS(=O)(=O)C1 (centres undefined)	97.8
Cc1ccc(C2C3C(=O)N(C)C(=O)C3ON2c2ccccc2)cc1 (centres undefined)	98.4
O=C(O)C1C2C=CC3(CN(CCc4ccccc4)C(=O)C13)O2 (centres undefined)	100.2
CCC(CC)NS(=O)(=O)c1cccc(C(=O)NCCOc2ccccc2)c1	100.4
CCC1CSc2nc3ccsc3c(=O)n21 (centres undefined)	104.0
CC1(C)CNC(=O)c2sc(N3CCCCC3)nc2C1	72.7
O=C(O)Cn1c(=O)oc2cc(S(=O)(=O)N3CCOCC3)ccc21	108.9
O=C(CC1(O)C(=O)Nc2ccccc21)C1CC2C=CC1C2 (centres undefined)	101.4
CCOC(=O)c1cc(-c2ccc(F)cc2)n(CC(=O)NC2CCCC(C)C2C)c1C (centres undefined)	106.0
O=S(=O)(c1ccccc1)c1ccc(O)cc1	102.8
CCOC(=O)NC(=S)N1C(C)CCCC1C (centres undefined)	103.3
COC(=O)c1ccc(CSc2nc(-c3cccs3)nc3c2c(=O)n(C)c(=O)n3C)o1	101.0
CC(=O)c1c(O)c(C)c(O)c2c1OC1=CC(=O)C(C(C)=O)C(=O)C12C (centres undefined)	98.0
Cc1cccc(-c2nc3ccccc3c(=O)n2OC(=O)c2ccc(C)c(C)c2)c1	99.6
Brc1ccccc1C=Nc1cccc2cnccc12	81.0
Cc1ccc(C)c(-c2csc(NC(=O)CCCc3ccccc3)c2C(N)=O)c1	94.5
CCS(=O)(=O)c1ccc2oc(=O)c(/C=C(\O)c3oc(C)nc3C)nc2c1	100.1
Nn1c(SCC(=O)NC2CCCCC2)nnc1-c1ccc(Cl)cc1	122.4
CN(CC(=O)NC1CCCC1)S(=O)(=O)c1ccc2c(c1)c(=O)n(C)c(=O)n2C	106.8
CC(C)COc1ccc(N)cc1OCC(C)C	100.5
Cc1ccc(CCNC(=O)c2coc3nc4ccccc4nc23)cc1	103.0
CC1Cc2ccccc2N1C(=O)CSc1nc2ccccc2[nH]1 (centres undefined)	108.6
O=C(O)CC1=C(c2ccc(Cl)cc2)CCC1=O	81.6
O=C(CC(C(=O)c1ccccc1)c1cccs1)c1ccc(Cl)cc1 (centres undefined)	104.0
CCN(CC)C(=O)Cc1c(C(=O)O)[nH]c2ccccc12	90.9
COc1ccc(Cn2c(C)cc(O)cc2=O)cc1OC	102.7
CCOc1ccccc1NC(=O)c1ccc(Br)cc1F	96.1
CCSc1nnc(NC(=O)c2cccc(C(F)(F)F)c2)s1	99.7
COc1cccc(C2NC(C(=O)O)C3C(=O)N(c4cccc(C(=O)O)c4)C(=O)C23)c1O (centres undefined)	100.1
CCc1nnc(NS(=O)(=O)c2ccc(N)cc2)s1	99.7
Cc1ccc(S(=O)(=O)N(Cc2ccccc2)C(C#N)c2ccc3c(c2)OCO3)cc1 (centres undefined)	113.7
CCOC(=O)C1=C(Cn2ccnc2)NC(=O)NC1c1ccc(Cl)cc1 (centres undefined)	111.3
CC1(C(=O)NC2CCCCC2)CCC(=O)N1Cc1cccnc1 (centres undefined)	83.8
COC(=O)CC(c1ccc(Br)cc1)n1cccc1 (centres undefined)	99.7
CCOc1ccc(Oc2ccc(C(F)(F)F)cc2N)cc1	101.4
Cc1ccnc(NCc2ccc(N(C)C)cc2)c1	99.8
COc1cccc(CC2CC(=O)N(c3ccc4c(C)cc(=O)oc4c3)C2=O)c1 (centres undefined)	100.2
Cc1ccc(N=C2SC3(CC3)C(=O)N2c2ccc(C)cc2)cc1	98.9
Cc1ccc(-c2cc(C(F)(F)F)n3nc(C(=O)Nc4ccn(Cc5ccccc5)n4)cc3n2)cc1C	99.0
Cc1cc(C)cc(NC(=O)C(OC(=O)C2CCC(=O)N2)c2ccccc2)c1 (centres undefined)	98.9
c1coc(-c2nnc(C3CCCCC3)o2)c1	100.1
COc1ccc2c(c1)nc1n2CN(CC2CCCO2)CN1Cc1ccccc1 (centres undefined)	99.9
O=C(Nc1ncnc2oc(-c3ccccc3)c(-c3ccccc3)c12)c1ccccc1	100.0
COc1ccc(SCc2cc3c(F)c(F)c(F)c(F)c3o2)cc1	99.5

Given in CSV form: entries from further up
smiles,VACV E9 pol inh
CCN(C(=O)CCc1ccccc1)C1CCCCC1,101.3
N#CCC(=O)Nc1cccnc1,101.9
O=C(/C=C/c1cccs1)Nc1ccc(N2CCCC2)c(C(=O)O)c1,93.2
O=C(Nc1nccs1)c1ccc(Cl)s1,103.9
CCOC(=O)N1CCC(NC(=O)Nc2cc(C)oc2C(F)(F)F)CC1,103.6
CCC(=O)Oc1ccc(C(=O)CC)cc1OC,97.8
CCOC(=O)N1CCN(C(=O)CSCC(=O)Nc2nc(-c3cccs3)cs2)CC1,99.8
Cc1c(/C=N/O)sc2ccccc12,96.8
C=CCc1cccc2cc(C(=O)O)c(=O)oc12,87.3
N#Cc1c(F)cccc1C(C#N)(c1ccccc1)N1CCOCC1 (centres undefined),90.1
Cc1cc2ccccc2n1CCNC(=O)c1cccs1,100.7
Cc1cc2cc(CNC(=S)NCCc3ccccc3)ccc2n1C,81.7
O=C(CSC(=S)N1CCOCC1)N1CCc2ccccc21,97.4
CP(=O)(O)C(c1cccc(Cl)c1)C(F)(F)F (centres undefined),98.3

Screens: PubChem, ICCB-Longwood Screening Facility, Harvard Medical School
